CtBP-E1A blk: inhibitors of CtBP/E1A interaction; 340,000 tested, 0.49% active; AlphaScreen GST-E1A/His-CtBP binding, 1536-well; stronger effect = lower value; control for the full effect not named in the record; AID 651724; activity change, % (concentration not given with the values); in the data active means activity change below about -65%; inconclusive means about -30% to -65%; inactive means above about -30%; further: on the % scale 0 is the no-effect control and ±100 the full control effect
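Protein mix (5X: 125 nM each GST-E1A, His-CtBP) was incubated with pinned compound 2 h at 37 deg C in dark, in 50 mM Tris pH 8.0 buffer with 300 mM NaCl. Glutathione donor and nickel acceptor beads followed; AlphaScreen signal read after 1 h.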
D2 potentiator: potentiates the human D2 dopamine receptor allosterically | P14416 | DiscoveRx D2 beta-arrestin cells, luminescence, 90 min; 100% = 57 uM dopamine signal | potentiation, % (concentration not given with the values) | 360,000 tested, 0.23% active; active = potentiation of 50% or more; inconclusive = 30% to 50%; inactive = 30% or less;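 further: compound concentration not given in the record; tested on top of an EC20 dose of dopamine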
Target sequence (P14416 whole entry, looked up): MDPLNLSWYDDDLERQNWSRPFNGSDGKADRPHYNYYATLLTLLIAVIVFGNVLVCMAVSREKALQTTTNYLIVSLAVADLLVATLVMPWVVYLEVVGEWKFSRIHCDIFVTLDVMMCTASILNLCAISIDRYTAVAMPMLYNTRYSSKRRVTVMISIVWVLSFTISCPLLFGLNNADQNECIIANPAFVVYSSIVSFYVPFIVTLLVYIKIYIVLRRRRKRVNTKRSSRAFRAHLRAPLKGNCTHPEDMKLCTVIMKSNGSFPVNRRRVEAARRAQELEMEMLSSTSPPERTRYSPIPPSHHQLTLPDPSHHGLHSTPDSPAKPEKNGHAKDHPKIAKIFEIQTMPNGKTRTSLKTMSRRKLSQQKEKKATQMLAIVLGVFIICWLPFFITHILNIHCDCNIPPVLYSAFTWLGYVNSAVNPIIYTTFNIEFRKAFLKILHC
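PathHunter beta-arrestin assay in DiscoveRx D2 cells. Compounds were added with an EC20 of dopamine (50 nM final) for 90 min at 37 deg C. Luminescence was read 1 h after detection reagent, with 57 uM dopamine as the EC100 control.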
D2 ag: agonists of human D2 dopamine receptor (beta-arrestin); P14416; DiscoveRx PathHunter D2 beta-arrestin, luminescence, 90 min; 100% = 57 uM dopamine signal; activation, % (no concentration beside the values); 360,000 tested, 0.084% active; in the data active = activation above about 40%; inconclusive = about 15% to 40%; inactive = below about 15%; further: compound concentration not given in the record; the text of the record calls up to 30% inactive
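DiscoveRx PathHunter D2 beta-arrestin cells (2,100/well) attached overnight, then compound-stimulated 90 min at 37 C in HBSS/10 mM HEPES/0.1% Tween-20 buffer; beta-galactosidase complementation read by luminescence after 1 h at ambient temperature. Dopamine 57 uM final (EC100) as control.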
gsp antag: antagonists of gsp mutant (McCune-Albright syndrome) | Potency, µM (titrated, usually from 76.9 µM), for the others: at the top dose activity change, negative = inhibition, usual class: inhibitors | 340,000 tested, 0.4% active | gsp-mutant cells, cAMP HTRF, 30 min; control for the full effect not named in the record; active = falling curve of any shape with a large fitted effect; inconclusive = falling curve, mostly with a smaller effect; inactive = flat or rising curve; cell line not stated here;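 further: intracellular cAMP measured with PDE inhibitor Ro 20-1724 present during compound exposure; potency means the concentration at half of the fitted maximal effect; on the % scale 0 is the no-effect control and ±100 the full control effect; nearly all actives have a fitted effect of over 65% in size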
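Measurement of cellular cAMP by homogeneous time-resolved fluorescence following a 30 min compound exposure at 37C. The PDE inhibitor […] was present throughout; the assay buffer was DPBS with 0.05% BSA and 0.005% Tween 20.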
gsp ag: activates gsp, the McCune-Albright syndrome mutation. gsp mutant cells, cAMP HTRF, 30 min; control for the full effect not named in the record. Potency, µM (highest dose often 76.9 µM), without a hit: top-dose activation (cAMP increase), hits mostly activators. 340,000 tested, 0.13% active. AID 624287; active = well fitted activation curve with a large enough effect; inconclusive = small, poorly fitted or top-dose-only effect, or another doubt; inactive = no such curve, though single readings can be large or run the other way; cell line not stated here;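 further: phosphodiesterase inhibitor Ro 20-1724 added with compounds to block cAMP breakdown; potency means the concentration at half of the fitted maximal effect; nearly all actives have a fitted effect of over 60% in size; about a fifth of the inactives were tested at one dose only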
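Cells in DMEM/10% FBS with G418 were pretreated with compounds in DMSO plus […] (300 uM stock) for 30 min at 37C. cAMP was measured by HTRF (cAMP-d2 plus anti-cAMP antibody-K) after 30 min at room temperature.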
Six1-Eya2 inh: blocks human Six1 binding to Eya2; activity change, % (test concentration not listed); Q15475+O00167; AlphaScreen GST-Six1/His-Eya2 binding, biochemical; stronger effect = lower value; control for the full effect not named in the record; 360,000 tested, 0.56% active; in the data active = activity change below about -65%; inconclusive = about -30% to -65%; inactive = above about -30%; further: on the % scale 0 is the no-effect control and ±100 the full control effect; compound concentration not given in the record
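AlphaScreen with GST-Six1 and His-Eya2 (5X mix: 250 nM and 500 nM), glutathione donor and nickel acceptor beads; buffer 50 mM Tris pH 8.0, 300 mM NaCl, 1 mM TCEP; 1 h at 37 C in the dark.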
* = called active by the depositor; ? = inconclusive; nt = not tested or not shown; [ ] = remark or other dose.

SMILES	CtBP-E1A blk	D2 potentiator	D2 ag	gsp antag	gsp ag	Six1-Eya2 inh
CCCCn1c(N)c(N(CC)C(=O)CCc2ccccc2)c(=O)[nH]c1=O	-14.5	-6.1	-7.0	5.3%	7.3%[15.4 µM]	1.6
CN(C(=O)CSc1ncnc2sccc12)c1c(N)n(Cc2ccccc2)c(=O)[nH]c1=O	-0.7	-4.3	-0.1	8.4%	30.6%	1.1
c1ccc2[nH]c(SCc3cn4ccccc4n3)nc2c1	0.0	-8.6	-3.8	11.3%	-53.6%[inhibitor]	-1.7
CCOC(=O)C1CC(CN2C(=O)c3ccccc3C2=O)OC1=O (stereo not given)	-13.5	-4.1	-4.0	-1.3%	5.2%	-3.0
Cc1ccc(S(=O)(=O)Nc2ccccc2C(=O)NCC2CCCO2)cc1 (stereo not given)	-2.3	-2.8	-1.7	1.8%	-0.9%[15.4 µM]	-1.5
O=C(CSC(=S)N1CCCC1)N1CCN(S(=O)(=O)c2cccc(F)c2)CC1	0.0	-17.3	-4.2	1.4%	-23.1%	23.8
Cc1[nH]c2ccc(C(=O)NCCCN3CCCCC3)cc2c1C	nt	-0.1	-2.2	4.2%	-5.3%	20.4
Cc1cc(C)n(S(=O)(=O)c2ccc(Cl)c(Cl)c2Cl)n1	8.1	-5.8	-4.0	?	?	-0.3
Cc1nc2ccccc2c(=O)n1NC(=O)c1ccc([N+](=O)[O-])cc1	6.1	-1.9	0.9	0.2%	-32.2%[15.4 µM]	-3.8
CC1(c2ccccc2)NC(=O)N(CC(=O)Nc2ccccc2C(=O)NC2CC2)C1=O (stereo not given)	3.7	-5.0	-4.9	20.4%	0.6%	3.6
O=C(c1ccco1)N1CCN(C(=O)c2cnn(-c3cccc(F)c3)c2C2CCNCC2)CC1	2.9	-9.0	-1.9	-9.6%	-3.2%	-2.9
COc1ccc(OC)c(NC(=O)CCN2CCN(C/C=C/c3ccccc3)CC2)c1	-17.9	-22.1	-3.9	-1.5%	1.4%	-6.1
CCC(Sc1ccc2nnc(-c3ccc(OC)c(OC)c3)n2n1)C(=O)O (stereo not given)	-1.1	9.1	0.3	0.1%	?	2.0
Cc1occc1-c1nnc(SCC(=O)N2CCOCC2)n1CC(C)C	-3.0	-12.6	-4.5	6.1%	4.8%	-0.2
C[C@H](CO)N1C[C@H](C)[C@@H](CN(C)S(=O)(=O)c2ccc(Oc3ccccc3)cc2)OCc2cnnn2CCCC1=O	6.4	2.7	-3.8	nt	-57.2%	-0.8
CN(C)S(=O)(=O)c1cccc(NC(=O)c2ccc(N3CCOCC3)c([N+](=O)[O-])c2)c1	-7.8	-9.7	2.2	-13.3%	0.0%[15.4 µM]	-8.0
CC(C)NC(=O)N(C)C[C@@H]1Oc2c(NS(=O)(=O)c3ccccc3)cccc2C(=O)N([C@@H](C)CO)C[C@@H]1C	9.3	5.9	0.3	3.1%	14.0%	7.3
Cc1ccc(S(=O)(=O)NC(=O)c2cc(C)n(CCCn3ccnc3)c2C)cc1	-25.0	-9.0	-1.7	0.7%	3.2%	?
CCc1cccc(NC(=O)CN2C(=O)NC3(CCCCCCC3)C2=O)c1	-23.0	-3.1	0.5	5.9%	10.9%	-2.9
CN(C(=O)c1cn2ccccc2n1)c1c(N)n(Cc2ccccc2)c(=O)[nH]c1=O	-0.4	-16.6	-3.9	11.3%	?	2.5
COc1cc(NS(=O)(=O)c2cc3c(cc2C)NC(=O)CO3)cc(OC)c1	-2.8	2.3	-3.7	1.8%	-51.2%[inhibitor]	-0.8
C=CCOc1ccc(/C=C/C(=O)OC(C)C(=O)Nc2ccc(NC(C)=O)cc2)cc1 (stereo not given)	2.8	-0.3	2.1	3.1%	5.2%	5.8
Cc1ccc(/C(O)=C2\C(=O)C(=O)N(CCN(C)C)C2c2ccccc2F)cc1 (stereo not given)	6.1	-0.2	-0.2	15.3%	0.2%	-1.3
CC(=O)CN1Cc2ccccc2/C1=N\C(=O)Nc1ccccc1	2.4	-16.2	-2.5	7.7%	-42.3%[inhibitor]	5.9
CC(C)N(CCNC(=O)c1oc(=O)c2ccccc2c1-c1ccccc1)Cc1ccco1	1.7	-15.6	-4.9	0.0%	-38.0%[inhibitor]	-3.5
CCN1C(=O)C(CC(=O)Nc2ccc(OC)cc2)N(CCc2ccc(F)cc2)C1=S (stereo not given)	3.3	-35.0	-2.0	-25.5%	-6.5%[15.4 µM]	-16.5
CCc1cc2ccccc2nc1SCC(=O)Nc1cc(OC)c(OC)cc1C(=O)O	7.5	-13.3	2.0	?	14.0%	-11.1
Cc1noc(C)c1S(=O)(=O)N1CCCC(C(=O)NCc2ccccc2Cl)C1 (stereo not given)	3.0	-2.1	-1.2	-14.1%	-24.5%	1.4
O=C(CN1C(=O)C2CC=CCC2C1=O)Nc1nccs1 (stereo not given)	-10.7	5.0	-5.3	7.5%	12.2%	12.8
O=C(Nc1nc2c(F)cc(F)cc2s1)c1ccco1	-19.6	-10.1	-3.5	-16.9%	17.2%	3.6
CC1CN(C(=O)CCN2C(=O)c3ccccc3C2=O)CC(C)O1 (stereo not given)	-1.4	-5.7	-1.6	8.1%	-28.0%	11.7
O=C(NCCN1CCCC1)C1CCC(=O)N(CCCN2CCOCC2)C1 (stereo not given)	3.5	-1.5	-2.3	0.5%	?	6.3
COc1ccccc1NC(=O)CCN1CCN(Cc2ccccc2)CC1	6.4	-20.5	0.0	-6.1%	?	-7.1
CCOC(=O)N1CCN(C(=O)c2cc(COc3ccc(F)cc3F)on2)CC1	-11.7	-32.5	-0.5	7.6%	-4.9%[15.4 µM]	1.4
Cc1nnc2ccc(N3CCOCC3)nn12	7.0	3.8	-2.5	8.3%	?	10.2
CCC(C)C(CO)NCCCn1cnc2c(SC)ncnc21 (stereo not given)	-0.5	nt	-2.8	nt	5.5%	-0.8
CCC(CCCO)CCC[C@H](C)CCC1OCCO1 (stereo not given in full)	9.8	-7.2	0.4	2.4%	nt	9.8
COc1cc(/C=C/C(=O)OCC(=O)NCCC2=CCCCC2)ccc1O	19.5	1.5	2.8	nt	-8.9%[15.4 µM]	-0.8
OCCC1CN(Cc2cc3c(cc2Cl)OCO3)CCN1Cc1ccccc1 (stereo not given)	2.1	-10.0	-1.1	3.8%	-5.6%	-6.1
Cc1ccc(OCC(=O)NC2CCS(=O)(=O)C2)c([N+](=O)[O-])n1 (stereo not given)	4.8	-9.1	-2.5	4.0%	-5.1%[15.4 µM]	4.0
O=C(CN1CCSC1=NCc1ccccc1)c1ccc(Cl)cc1	-12.9	-30.3	-1.6	0.9%	-2.2%	18.1
NS(=O)(=O)c1ccc(NC(=O)COC(=O)c2c3c(nc4ccccc24)/C(=C\c2ccc4c(c2)OCO4)CCC3)cc1	5.1	25.6	1.3	1.7%	-0.3%	3.8
CCOc1ccc(C2CC(c3c(O)c4ccccc4oc3=O)=NN2c2ccccc2)cc1OC (stereo not given)	-4.6	1.3	-3.2	-11.4%	0.4%[15.4 µM]	3.8
COc1ccc(C(=O)N(C)[C@H]2C[C@H]3c4[nH]c5ccccc5c4CCN3C[C@H]2[C@H](C)O)cc1	-12.6	-7.0	5.8	nt	nt	1.3
CCCCCOc1ccc(NS(C)(=O)=O)cc1	5.7	7.4	0.5	-11.0%	8.8%	3.3

An excerpt from above in order of the gsp antag value, falling:
SMILES	CtBP-E1A blk	D2 potentiator	D2 ag	gsp antag	gsp ag	Six1-Eya2 inh
CC1CN(C(=O)CCN2C(=O)c3ccccc3C2=O)CC(C)O1 (stereo not given)	-1.4	-5.7	-1.6	8.1%	-28.0%	11.7
OCCC1CN(Cc2cc3c(cc2Cl)OCO3)CCN1Cc1ccccc1 (stereo not given)	2.1	-10.0	-1.1	3.8%	-5.6%	-6.1
CCC(CCCO)CCC[C@H](C)CCC1OCCO1 (stereo not given in full)	9.8	-7.2	0.4	2.4%	nt	9.8

Some entries already given with just Six1-Eya2 inh:
| canonical_smiles | Six1-Eya2 inh |
| --- | --- |
| O=C(Nc1nc2c(F)cc(F)cc2s1)c1ccco1 | 3.6 |
| CC1CN(C(=O)CCN2C(=O)c3ccccc3C2=O)CC(C)O1 (stereo not given) | 11.7 |

(cont.)
SMILES	CtBP-E1A blk	D2 potentiator	D2 ag	gsp antag	gsp ag	Six1-Eya2 inh
COc1ccc(NC(=O)c2cccc3c(-c4cnn(C)c4)coc23)cc1	-22.5	-7.9	7.8	nt	nt	-21.1
COc1cnc(N(C)C)nc1Sc1cccc(Cl)c1	33.1	0.1	-1.7	-14.2%	6.2%	25.8
CC1=NOC(=O)/C1=C\c1ccc(-c2cccc(Cl)c2)o1	-18.7	-9.4	0.4	-1.0%	-9.2%	-20.1
O=C(NC1CCCCCCC1)C1CCN(S(=O)(=O)N2CCC3(CC2)OCCO3)CC1	2.8	-12.0	-1.3	4.9%	-9.7%	6.7
CCn1c(CN2CCN(Cc3ccc(C)cc3)C(CCO)C2)nc2ccccc21 (stereo not given)	-5.9	-15.0	-1.4	-1.6%	9.5%	-3.5
O=C(CCCCC(=O)N1CCOCCOCCOCC1)OCc1ccccc1	-2.8	-7.7	-3.8	8.0%	7.5%[15.4 µM]	3.9
COc1nc(NC(=O)c2ccc(F)cc2)nc(OC)c1-c1ccccc1	0.0	-9.1	0.1	-13.9%	8.7%[15.4 µM]	-2.1
Cc1cc(C)c2cc(N)c(Cl)nc2n1	-17.8	-10.3	-5.1	nt	nt	-18.2
CC(C)C(C)NC(=O)COc1ccc(Sc2ccc(OCC(=O)NC(C)C(C)C)cc2)cc1 (stereo not given)	-4.4	-26.4	-2.8	-60.5%	?	-3.6
CCC1Oc2ccccc2N(CC(=O)NC2CC2)C1=O (stereo not given)	6.0	-8.4	-1.5	2.2%	-18.3%[15.4 µM]	-0.6
CCN(CC)S(=O)(=O)c1ccc(N2CCc3ccccc3C2)nc1	-21.2	-15.5	-8.8	-7.3%	17.6%	6.6
Fc1ccc(NC(=S)Nc2cccnc2)cc1	-6.8	-4.5	-4.0	4.0%	-31.7%[inhibitor]	-12.7
Cc1cccc(Nc2nc(N)nc(CCl)n2)c1C	-1.2	-4.3	3.1	14.5%	1.1%[15.4 µM]	-2.4
C/C(Cc1ccccc1)=N\NC(=O)c1ccccn1	-5.3	-6.8	-0.5	6.7%	0.6%	-8.2
COC(=O)c1c(-c2ccccc2OC)sc2cc3c(cc12)OCO3	-1.4	-5.3	-2.3	-2.0%	nt	19.9
COC(=O)C1=C(C)NC(=S)NC1c1ccco1 (stereo not given)	0.0	-2.9	-3.3	0.0%	-6.1%[15.4 µM]	-3.6
COc1ccc2c(c1)cc(C(=O)O)n2C	1.2	-15.3	-5.1	-3.2%	-5.6%	4.0
COc1cc(-c2nc3ccc4ccccc4c3c3c2CCC3)cc(OC)c1O	9.1	5.3	-0.5	-38.4%	-9.7%	-28.7
O=C(COc1ccc(Cl)cc1Cl)Nc1ccc2nc3n(c(=O)c2c1)CCCC3	?	-33.2	-0.8	-12.0%	31.6%	?

Outcome played no part in choosing rows; overall some 1.4% were active at least once.
